Sa ugtP lethal: growth inhibition of ugtP-null S. aureus, primary screen, RN4220 ugtP deletion, OD600. hit rate 0.54% among 330,000. AID 1259309, 2017. growth inhibition, % (no concentration beside the values). 16 h; some inactives read as strong as hits;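 active means z-score under -3 and OD600 up to 0.15 on both plates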;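 further: plate controls were untreated wells for no effect and antibiotic for full effect; wells of about 80 µL received 100 nL stock; the first replicate is given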
Mtb hypoxia inh: PubChem AID 1159583; hit rate 0.1% among 300,000; fluorescence inhibition, % (test concentration not listed); M. tuberculosis hypoxia-regulated fluorescent reporter, fluorescence;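 active means 35 to 45% if threefold the growth effect, above 45% if 1.5-fold the growth effect; inactive means the rest, general growth blockers included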;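 further: wells of about 50 µL received 100 nL stock; 0% = vehicle wells and 100% = reference inhibitor wells; whole bacteria with a GFP reporter of the hypoxia response; strong numbers were not always called active; many hits fall short of the cut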
BJeLR lethal: MLPCN primary cell-based screen for lethality selective to Ras in HRASV12 cells. AID 1554, 2009. hit rate 0.17% among 300,000. BJeLR (HRASV12) viability, CellTiter-Glo ATP luminescence, 48 h; reference of the scale not given here. inhibition, % (no concentration beside the values);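 active means replicate mean above 50%; inconclusive means above 50% but judged a plate artefact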;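 further: 50 nL library stock added to about 25 µL; numbers are from one replicate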
Autofluor counter: counter-screen for toxin protease inhibitors: compound fluorescence. compound autofluorescence counterscreen, microsphere flow cytometry; stronger effect = higher value. fluorescence intensity (concentration not given with the values). hit rate 3.1% among 360,000;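 active means at least 3 SD above the mean of all compounds, about 16000 in these data; inconclusive means too few beads counted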;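 further: 100 nL of 1 mM stock went into each well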
RN4220 kill: growth inhibition of S. aureus RN4220, primary screen, OD600. inhibition, % (concentration not given with the values). hit rate 0.33% among 330,000. 16 h;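 active means z-score of -3 or lower and OD600 up to 0.18 on both plates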;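 further: plate controls were untreated cells for no effect and reference antibiotic for full effect; stock transfer was 100 nL into about 80 µL; one replicate is shown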
PrP 5UTR inh: inhibition of PrP 5' UTR reporter expression. cell-based PrP 5' UTR mRNA reporter, plate reader. hit rate 0.35% among 340,000. inhibition, % (no concentration beside the values). AID 488862, 2010;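 active means every replicate at 50% or more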;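 further: 0 = median of the neutral control wells; tested in H4 reporter cells; numbers are from one replicate; inactives centre near -14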
Mtb hypoxia inh growth: recorded beside Mtb hypoxia inh, whose call it bears; growth inhibition, %; measured here: M. tuberculosis growth (absorbance);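 0% = vehicle and 100% = reference antibiotic; read after six days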
* hit, by the source's call; ? = inconclusive; . = not tested or not shown; & = joins results of further samples; ! = not confirmed by another sample.

Each structure is followed by: Sa ugtP lethal | Autofluor counter | BJeLR lethal | PrP 5UTR inh | RN4220 kill | Mtb hypoxia inh | Mtb hypoxia inh growth
> Cc1ccc(CSc2nnc(NC(=O)C3COc4ccccc4O3)s2)cc1 (configuration not stated)
 : 0 | 10393 | 5 | -25 | 6.1 | 3 | 4
> CCCc1nnc(NC(=O)c2cc3ccccc3oc2=O)s1
 : 6 | 3138 | -3 | -7 | 12 | 18 | 8
> Cc1cnc(Sc2ncccc2[N+](=O)[O-])nc1
 : 0 | 9046 | 10 | -8 | 1.1 | 4 | 7
> O=C(CNS(=O)(=O)c1ccc(Cl)cc1)NN=Cc1ccco1
 : 2 | . | . | . | 2.2 | -4 | 1
> CC1(C)CC(=O)C(C=Nc2ccccc2)=C(O)C1
 : -3 | 2613 | -4 | -26 | -0.4 | . | .
> CC1CCc2c(nc3ncnn3c2N2CC(C)OC(C)C2)C1 (configuration not stated)
 : -2 | 4616 | 4 | -2 | 0.6 | . | .
> CCCN(CCC)Cc1c(C(=O)N/N=C/C(C)=C\c2ccco2)nnn1-c1nonc1N
 : . | 5155 | 7 | -32 | . | . | .
> Cn1c(CCNC(=O)c2ccco2)nc2cc(NC(=O)C3CCCCC3)ccc21
 : -5 | 9528 | 2 | -12 | -3.9 | 6 | 8
> COc1ccc(NS(=O)(=O)c2ccc(OCC(=O)N3CCN(C)CC3)cc2)cc1Cl
 : 4 | 5747 | -6 | -16 | 3.0 | 4 | 10
> CCC(=O)Nc1ccc(NC(=O)c2ccco2)cc1
 : 0 | 12791 | -2 | -60 | 1.9 | 9 | 13
> C=CCn1c(=O)c2ccccc2n2c(SCC(=O)/C(C#N)=C(\C)N)nnc12
 : 5&3 | 24633*! | 2 | 7&-22 | 3.6&7.2 | 4&1 | -4&3
> COc1ccc(S(=O)(=O)N2CCCCC2)cc1NC(=O)CCNC(=O)c1ccc(Br)cc1
 : -2 | 4439 | -7 | -12 | -5.5 | -12 | 0
> COc1ccc(/C=C2\SC(=N)N(c3ccc(F)cc3)C2=O)cc1OC
 : -7 | 4545 | 6 | -12 | 10 | 8 | 8
> Cc1ccc(-c2cnc(NCc3cc4c(cc3[N+](=O)[O-])OCO4)n2C)cc1C
 : 15 | 4333 | 4 | -11 | 1.1 | 3 | 3
> N=c1oc2ccccc2cc1C(=O)NCc1ccccc1
 : . | 4917 | 7 | -26 | . | . | .
> COc1ccc2[nH]c(=O)c(CN(C)C(=O)c3cccs3)cc2c1
 : -4 | 4391 | -2 | -16 | 2.2 | -18 | -4
> COc1ccc2c(c1)C(SCC(=O)NCCc1ccccc1)CC(C)(C)O2 (configuration not stated)
 : 5 | 4486 | -6 | -15 | -2.7 | . | .
> CCSc1nnc(Nc2ccccc2)s1
 : 5 | 4682 | 2 | -45 | 6.6 | . | .
> OCC1(Cc2ccccc2Cl)CCN(C/C=C/c2ccccc2)CC1
 : -2 | 4880 | -1 | -21 | 1.3 | 12 | -2
> CCOc1ccccc1CNc1ccc(N2CCOCC2)c(C(=O)O)c1
 : 9 | 10806 | 1 | -16 | 4.2 | 9 | 9
> CC1Oc2ccccc2N(CC(=O)N2CCCC2)C1=O (configuration not stated)
 : 9 | 3779 | -3 | -1 | -1.4 | 9 | 11
> Nc1ccc(Cl)cc1C(=O)OCC(=O)NC1CCS(=O)(=O)C1 (configuration not stated)
 : 1 | 4696 | 8 | -15 | 0.0 | -2 | -5
> O=C(CC1(C(F)(F)F)OCCO1)Nc1ccc2c(c1)OCO2
 : 3 | 7856 | 1 | -21 | 4.8 | 1 | 12
> CS(=O)(=O)c1ccc2nc(NC(=O)CS(=O)(=O)Cc3ccccc3)sc2c1
 : 8 | 4387 | 10 | -24 | 5.1 | 18 | 17
> COc1ccc2nc(SCC(=O)NC3CCCC3)c(C)cc2c1
 : . | 5330 | 13 | -12 | . | . | .
> Cc1ccc2nc(N/N=C/c3ccccc3C#N)nc(-c3ccccc3)c2c1
 : . | 17384* | -4 | -15 | . | . | .
> Cc1ccc(OCC(=O)N2CCC(Cc3ccccc3)CC2)c([N+](=O)[O-])n1
 : -5 | ? | . | -9 | -2.9 | -3 | 7
> CCOC(=O)C1=C(C)NC2=C(C(=O)CCC2)C1c1ccc(O)c(OCC)c1 (configuration not stated)
 : 0 | 2458 | 10 | 2 | 3.0 | 3 | 7
> CCSc1nc(C)cc(Oc2ccc(=O)n(C)n2)n1
 : 8 | 9961 | -1 | -17 | 3.3 | 7 | 15
> COC(=O)c1sc2nc3c(cc2c1N)CCCC3
 : 6 | 4323 | -6 | -129 | 9.1 | 5 | 10

Pulled one by one from the list above (two):
Each structure is followed by: Sa ugtP lethal | Autofluor counter | BJeLR lethal | PrP 5UTR inh | RN4220 kill | Mtb hypoxia inh | Mtb hypoxia inh growth
> CS(=O)(=O)c1ccc2nc(NC(=O)CS(=O)(=O)Cc3ccccc3)sc2c1
 : 8 | 4387 | 10 | -24 | 5.1 | 18 | 17
> COc1ccc2nc(SCC(=O)NC3CCCC3)c(C)cc2c1
 : . | 5330 | 13 | -12 | . | . | .

The list continues:
Each structure is followed by: Sa ugtP lethal | Autofluor counter | BJeLR lethal | PrP 5UTR inh | RN4220 kill | Mtb hypoxia inh | Mtb hypoxia inh growth
> Cc1ccc(NC(=O)C(=O)NCC2CCCO2)cc1C (configuration not stated)
 : 7 | 6446 | 2 | -53 | -1.0 | 1 | 18
> CN(C)c1ccc(/C=N/NC(=O)c2cccc(C(=O)N/N=C/c3ccc(N(C)C)cc3)n2)cc1
 : . | 2553 | -2 | -68 | . | . | .
> CCn1c(SCC(=O)Nc2cc(C)ccc2C)nc2c(c1=O)SC(C)C2 (configuration not stated)
 : -10 | 4364 | 6 | -26 | 8.5 | 3 | 3
> CC(=O)N1CCN(c2ccccc2NC(=O)COc2ccc(Cl)cc2Cl)CC1
 : 0 | 5029 | -5 | -5 | 0.7 | . | .
> COC(=O)c1[nH]c2ccccc2c1NC(=O)CN1CCN(c2cccc(OC)c2)C(C)C1 (configuration not stated)
 : -3 | 3361 | -15 | 5 | 1.7 | 2 | 5
> Oc1ccccc1C1=Nc2ccccc2N=C(c2ccco2)C1
 : 26 | 9950 | 1 | -16 | 0.3 | 6 | 0
> C=CCn1c(SCCN2CCCC2)nc2c([nH]c3ccccc32)c1=O
 : -4 | 3664 | -1 | -1 | 4.3 | 0 | 9
> Cc1ccc2c(CC(=O)OCc3cc(=O)n4c(n3)sc3ccccc34)coc2c1
 : -7 | 5227 | -4 | 0 | -2.1 | . | .
> O=S(=O)(c1ccc(S(=O)(=O)N2CCC3(CC2)OCCO3)cc1)N1CCCC1
 : 4 | 4492 | -2 | -14 | -0.1 | 13 | 5
> CC(=O)N(C)CC#CCN1CCCC(CO)C1 (configuration not stated)
 : 6 | 3928 | -2 | -1 | 4.0 | 3 | -2
> CCNc1nc(NCC)nc(NN=Cc2ccc([N+](=O)[O-])o2)n1
 : 70 | . | . | . | 56 | . | .
> O=C(O)CCCC(=O)N1CCCC1
 : 1 | 3522 | 4 | 16 | 0.6 | 2 | 0
> Cc1cc2c(cc(C(=O)OC(C(=O)NCc3ccco3)C(C)C)n2C)o1 (configuration not stated)
 : 5 | 8117 | 0 | -8 | 1.0 | 15 | 5
> O=C1NC(=O)C(CCc2ccncc2)(CCc2ccccn2)C(=O)N1c1ccc(Br)cc1 (configuration not stated)
 : -1 | 4154 | -6 | -6 | 2.9 | -6 | -2
> Cc1ccc(N(CC(=O)NC2CCCC2)C(=O)CCC(=O)Nc2ccccn2)cc1C
 : 7 | 5629 | -2 | -10 | 3.0 | 1 | 7
> Cc1ccc(NC(=S)NCc2ccc3c(c2)cc(C)n3C)c(C)c1
 : 4 | 2886 | -7 | 1 | 10 | 3 | 1
> O=C(NCCO)N1c2ccccc2Sc2ccccc21
 : 6 | . | -3 | 11 | 5.4 | 10 | -3
> CC(CCc1ccccn1)C(=O)c1ccccc1 (configuration not stated)
 : -1 | 3441 | . | -11 | 1.4 | 6 | 8
> CCN(CC)C(=O)CSc1nc2cccnc2n1-c1ccccc1OC
 : 0 | 4779 | 0 | -11 | 0.3 | . | .
> CCC(=O)Nc1ccc(NC(=O)CSc2nnc(-c3ccc(O)cc3)n2CC2CCCO2)cc1 (configuration not stated)
 : 1 | 3891 | . | -3 | -0.6 | -12 | 4
> CSc1ccccc1OCc1cc(C(=O)N(C)Cc2cnccn2)no1
 : 2 | ? | -6 | -36 | 2.6 | -6 | 0
> CN(C)CC(=O)c1c[nH]c2ccccc12
 : 12 | 4376 | -4 | -14 | -0.3 | . | .
> O=c1cc(CN2CCN(Cc3ccccc3)CC2)c2ccc(O)cc2o1
 : -1 | 6476 | -3 | -7 | 5.0 | 5 | -3
> O=C(N/N=C/c1cc(Cl)cc([N+](=O)[O-])c1O)NC12CC3CC(CC(C3)C1)C2
 : . | 1990 | -11 | -5 | . | . | .
> COC(=O)c1nn(-c2ccc(OC)cc2)c(=O)cc1NN
 : 0 | 4058 | . | -14 | 5.0 | 11 | 2
> O=C(NC1=NCCS1)C1Cc2ccccc2CN1C(=O)c1ccccc1 (configuration not stated)
 : -4 | 3101 | 17 | -32 | 7.0 | 5 | 9
> CCOc1ccc(NC(=O)CCNS(=O)(=O)c2ccc3c(c2)CCC(=O)N3)cc1
 : -1 | 2176 | 1 | -23 | 2.9 | 3 | 0
> Cc1cc(NS(=O)(=O)c2ccc(NC(=S)NC(=O)c3ccc(Br)cc3)cc2)no1
 : 54 | 8790 | 12 | -24 | 20 | 9 | 12
> CN1CCC(N(C)C(=O)c2cc(=O)c3ccccc3o2)CC1
 : 4 | 4420 | 10 | -9 | 1.6 | 4 | 0
> CCc1ccccc1NC(=O)CN(C)C(=O)Cn1ncc(Cl)c(Cl)c1=O
 : -1 | 8522 | 19 | -13 | 0.6 | 4 | 3
> Cn1cnnc1Sc1ccc(C(=O)OCC(=O)NC2CC2)cc1[N+](=O)[O-]
 : 28 | 3769 | . | -14 | 8.9 | 2 | 12
> O=C(NCCOc1nc(N2CCCCC2)nc(N2CCCCC2)n1)Nc1ccccc1
 : -10 | 2602 | 3 | -14 | 5.3 | 8 | -3
> O=C(CN1CCCCCC1)Nc1ccccc1F
 : 5 | 4604 | -12 | 1 | 5.2 | -73 | -8
> COCCNC(=O)c1cccc(OC2CCN(Cc3ccc(C(C)C)cc3)CC2)c1
 : 3 | 4642 | -2 | -3 | 0.0 | -6 | 6
> CCCC(=O)Nc1c(C)n[nH]c1C
 : -1 | 3325 | -6 | -7 | 3.2 | 2 | 4
> O=C(c1ccco1)N1CCN(C(=S)Nc2cccc([N+](=O)[O-])c2)CC1
 : 5 | 4755 | 7 | 8 | 3.5 | 5 | 2
> O=C(Nc1ccc2[nH]c(=S)sc2c1)c1ccccc1
 : -7 | 2468 | -1 | -83 | -3.4 | -1 | 0
> Cc1cccc(C2CC3(CC(C)(C)NC(=S)N3)Oc3cc(O)ccc32)c1 (configuration not stated)
 : 3 | 4771 | -6 | 12 | 11 | -13 | -6
> Cc1nc(N2CCCC2)c2ccsc2n1
 : 3 | 2482 | -1 | -12 | 4.0 | 8 | 4
> Cc1cc2c(cc1C)C(=O)NC(C)(C)C2
 : 3 | 11854 | 2 | -15 | 6.0 | 12 | -2
> CCc1nc(Sc2nc(C)cc(C)n2)c2oc3ccccc3c2n1
 : -16 | 4875 | -5 | -18 | -2.3 | . | .
> COC(=O)c1nc2n(n1)C(c1cccc(Cl)c1)C1=C(CCCC1=O)N2 (configuration not stated)
 : 10 | 5736 | -8 | -12 | 0.9 | 7 | -1
> O=C(Nc1cccc(C(F)(F)F)c1)/C(=C/c1ccco1)NC(=O)c1cccs1
 : -3 | 2209 | 3 | -6 | 8.9 | . | .
> CCCCn1c(N)c(N(C)C(=O)c2ccc(Br)o2)c(=O)[nH]c1=O
 : 3 | 3053 | . | -4 | 0.8 | 8 | -1
> COc1ccc(N2C(=O)C3C(C2=O)C(C(=O)c2ccc(Cl)cc2)N2CCCC32)cc1 (configuration not stated)
 : -1 | 4474 | 1 | -10 | 3.5 | 1 | 4
> COc1cc(NC(=O)Nc2ccccc2OC)c(OC)cc1NC(=O)CN1CCCCC1
 : -6 | 2820 | -3 | -20 | 5.8 | 4 | 7
> COc1ccccc1NC(=O)CNC(=O)c1ccc(Br)o1
 : 11 | . | -8 | -13 | 2.8 | 7 | 1

Bioassay records deposited in PubChem by several laboratories.
